Screening data deposited in PubChem BioAssay by Broad Institute.
RanGTP-Imp inh: inhibitors of RanGTP-importin-beta interaction, primary screen, biochemical, FRET, CFP-Ran, YFP-importin-beta, homogeneous; cell-free CFP-Ran/YFP-importin-beta FRET ratio; inhibition, % (no concentration beside the values); 300,000 compounds, 1.1% hits; AID 2216;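 active = most replicates above 15%; inconclusive = exactly half above 15%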;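 also: 0% = DMSO wells and 100% = Ran loaded with GDP instead of GTP; wells of about 40 µL received 100 nL stock; the first replicate is given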
Beta apoptosis: beta cell apoptosis inhibition | INS-1E cytokine-induced death, ATP luminescence, 48 h; percent of positive-control rescue, neutral wells zero | protection from apoptosis, % (no concentration beside the values) | 300,000 compounds, 0.8% hits | AID 435005;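 active = all replicates at 75% or more, or half of them and the mean; inconclusive = half reach 75% but not the mean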;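 also: 0% = cytokine-treated negative control wells and 100% = positive control rescue; higher means more ATP so stronger rescue from cytokine killing; wells of about 40 µL received 100 nL stock; the first replicate is given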
FGF22 binding: FGF22 (human) thermal shift binding; recombinant FGF22 thermal shift, SYPRO orange fluorescence; percent of sucrose octasulfate shift, DMSO zero; calls only at 9.99 µM; 340,000 compounds, 1.5% hits; AID 651658;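 active = melting point raised past a set limit in the mean and every replicate; inconclusive = no clear call; three in four hits are not shown here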
Target sequence (Q9HCT0 whole entry, looked up): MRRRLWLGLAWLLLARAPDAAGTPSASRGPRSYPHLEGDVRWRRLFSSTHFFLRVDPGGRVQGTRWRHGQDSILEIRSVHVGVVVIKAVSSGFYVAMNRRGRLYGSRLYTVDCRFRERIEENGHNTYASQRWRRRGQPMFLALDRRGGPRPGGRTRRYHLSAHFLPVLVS
rRNA inh HTS: inhibits bacterial ribosomal RNA function over humanized ribosomes; E. coli WT GFP vs humanized-ribosome RFP mutants, fluorescence, 24 h; hits give low values; DMSO median 0, no signal -100; AID 720706; 350,000 compounds, 1.6% hits; GFP signal change (wild-type ribosome), % (concentration not given with the values);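 active = significant combined selectivity score with lowered wild-type GFP, culture density cut under 30%, mutant RFP and density less affected; inactive = any of these conditions unmet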; also: one replicate is shown; some compounds called inactive have numbers as strong as hits
Calb FLC: C. albicans growth modulation with fluconazole | C. albicans CaCi-2 (fluconazole-resistant clinical isolate) + fluconazole, Alamar Blue growth, 48 h | growth inhibition, % (test concentration not listed) | 300,000 compounds, 0.57% hits | AID 1979;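 active = most replicates above 75%; inconclusive = exactly half above 75%; inactive = most below 75%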;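 also: all wells also contain fluconazole at 8 µg/ml as a sub-toxic cotreatment; 0% = median of DMSO wells and 100% = median of geldanamycin control wells; wells of about 8 µL received 7.5 nL stock; the first replicate is given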
T cruzi repl: blocks replication of Trypanosoma cruzi | 300,000 compounds, 1.4% hits | inhibition, % (concentration not given with the values) | AID 1885 | T. cruzi beta-gal in NIH3T3, luminescence, 90 h;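 active = mean inhibition across valid replicates above about 55%, limit read from the data; inconclusive = mean below that limit but half or more replicates reach it; inactive = mean below it, under half of replicates reach it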;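 also: signal also drops with host cell toxicity which is not excluded here; 0% = plate median of DMSO wells and 100% = zero luminescence signal; higher percent means less beta-gal luminescence so fewer parasites; stock transfer was 50 nL into about 50 µL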
ALR H2O2 inh: blocks human ALR sulfhydryl oxidase activity | P55789 | 290,000 compounds, 3.8% hits | AID 485317 | purified ALR, DTT oxidation, H2O2 HRP-luminol luminescence | inhibition, % (concentration not given with the values);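 active = mean and each replicate at 75% or more; inconclusive = only one of the two met; inactive = neither met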;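 also: stock transfer was 7.5 nL into about 7.5 µL; 0% = neutral wells and 100% = wells with inactivated enzyme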
Target sequence (P55789 whole entry, looked up): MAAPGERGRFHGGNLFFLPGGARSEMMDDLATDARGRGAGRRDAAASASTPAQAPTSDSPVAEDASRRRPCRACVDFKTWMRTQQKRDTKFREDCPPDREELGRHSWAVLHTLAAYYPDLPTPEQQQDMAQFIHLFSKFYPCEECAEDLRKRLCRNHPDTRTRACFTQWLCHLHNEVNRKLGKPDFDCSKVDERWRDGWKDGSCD
AF4-AF9 inh: MLL-AF4/AF9 protein interaction inhibition. AlphaScreen, biotin-AF4 peptide binding to FLAG-AF9. inhibition, % at 10 µM. 350,000 compounds, 0.47% hits. AID 651704;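 active = every replicate reaching a set inhibition limit, whatever the replicate mean, cut at about 25% in these data; inconclusive = mean inhibition reaches that limit but some replicates miss it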;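 also: 0% = plate neutral control median and 100% = total signal loss; the record names both 10 and 1 µM as test concentration; the first replicate is given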
Target sequence (P42568 whole entry, looked up): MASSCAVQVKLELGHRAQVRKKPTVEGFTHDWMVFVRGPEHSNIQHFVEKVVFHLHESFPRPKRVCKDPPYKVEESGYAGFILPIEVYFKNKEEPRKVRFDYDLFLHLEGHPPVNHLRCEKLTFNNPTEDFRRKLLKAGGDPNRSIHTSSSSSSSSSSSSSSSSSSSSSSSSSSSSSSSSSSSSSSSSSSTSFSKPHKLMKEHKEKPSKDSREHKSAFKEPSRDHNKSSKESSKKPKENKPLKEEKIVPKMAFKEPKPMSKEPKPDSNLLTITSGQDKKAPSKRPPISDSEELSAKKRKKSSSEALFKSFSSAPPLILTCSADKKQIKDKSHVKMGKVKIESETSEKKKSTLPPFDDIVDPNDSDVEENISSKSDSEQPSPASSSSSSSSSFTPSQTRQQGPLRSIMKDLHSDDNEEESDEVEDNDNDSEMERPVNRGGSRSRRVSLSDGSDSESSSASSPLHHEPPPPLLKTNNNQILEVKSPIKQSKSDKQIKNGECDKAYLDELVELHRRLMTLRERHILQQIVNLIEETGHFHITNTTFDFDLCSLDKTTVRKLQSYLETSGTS
rRNA inh HTS OD600: also measured in rRNA inh HTS; calls as there; OD600 change, %; measured here: OD600 growth;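 optical density of the mix in the first replicate; 0 = DMSO median and -100 = no signal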
rRNA inh HTS RFP: further read-out of rRNA inh HTS, marked with its call; RFP signal change, %; measured here: RFP humanized mutant strains;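 first replicate; 0 = DMSO median and -100 = no signal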
* marks the source's active call; other numbers are inactive results; i = inactive; ? = inconclusive; . = no result given.

SMILES	RanGTP-Imp inh	Beta apoptosis	FGF22 binding	rRNA inh HTS	rRNA inh HTS OD600	rRNA inh HTS RFP	Calb FLC	T cruzi repl	ALR H2O2 inh	AF4-AF9 inh
O=C(c1ccco1)N1CCN(C(c2ccccc2F)c2nnnn2Cc2cccs2)CC1 (stereo not given)	-2.5	.	.	.	.	.	-9	-1	1	.
Cc1ccc(NC(=S)N2CCC(c3nc4ccccc4s3)CC2)cc1	6.0	-12	i	-17	-16	3.8	4	38	-1	6.5
Cc1cc(C(=O)CSc2nc3ccccc3c(=O)[nH]2)c(C)n1C	-0.3	0	.	.	.	.	2	18	98*	.
Cc1cccc(C(=O)Nc2ccc(C(=O)/C=C/c3cccnc3)cc2)c1	2.5	101*	.	.	.	.	10	35	.	.
CCNC(=O)CCCOc1ccc(Cl)cc1Cl	?	-3	.	.	.	.	12	12	-4	.
Cc1[nH]c2ccccc2c1C(=O)CN1CC(C)CC(C)C1 (stereo not given)	1.1	-5	i	3	8	4.9	-9	9	-8	1.3
Cc1ccc(Nc2nnc(C3C(=O)N(C)C4(C)CC3c3cc(Br)ccc3O4)s2)cc1 (stereo not given)	-1.4	-9	i	2	-15	-0.7	64	22	3	1.8
CN(c1ccc(C(=O)N2CCc3ccccc3C2)cc1)S(C)(=O)=O	?	-7	.	.	.	.	-2	-8	-8	.
COc1ccc(NC(=O)c2nc[nH]c2C(=O)N2CCC(C)CC2)cc1	-1.9	-5	i	8	14	1.1	-3	-13	3	1.2
Cc1ccc(S(=O)(=O)Nc2nc3ccccc3nc2NCc2ccc3c(c2)OCO3)cc1C	1.8	4	.	.	.	.	?	21	-3	.
CCN(CC(=O)Nc1c(F)cccc1F)C(=O)CCNC(=O)c1ccc([N+](=O)[O-])cc1	-3.9	-10	i	-1	11	-3.9	0	2	-10	-0.3
O=C(c1ccc(F)cc1)C1CCN(C(=S)Nc2ccc(F)cc2)CC1	3.0	-6	i	0	2	1.5	1	-15	.	2.7
CCCOc1ccc(CSC(=N)N)cc1C(=O)OC	-1.4	-9	i	7	6	-2.9	3	6	99*	-3.1
COc1ccc(NC(=O)c2ccc3c(=O)n(CC4CCCO4)c(=S)[nH]c3c2)c(OC)c1 (stereo not given)	-0.3	-8	i	17	12	-1.5	11	-5	.	1.8
Cn1nnc(NC(=O)c2cccc(F)c2)n1	6.7	-3	.	.	.	.	-16	-13	-19	.
Cc1ccc(/C=N/NC(=O)Cn2nnc(N)n2)o1	2.5	-4	i	18	-3	0.5	0	-3	.	-0.9
COc1ccc(NC(C)=O)cc1NC(=O)c1ccc(C#N)cc1	-0.2	2	i	9	6	2.1	-1	-7	-13	-0.4
COc1ccccc1CCNC(=O)C(=O)NCC1OCCN1S(=O)(=O)c1cccs1 (stereo not given)	?	2	i	-1	-5	-0.7	7	2	-10	0.9
COc1ccc(OC)c(-n2c(-c3cccc(O)c3)n[nH]c2=S)c1	-3.1	0	.	.	.	.	-11	1	70	.
CCOP(=O)(OCC)c1nc(-c2cccc3ccccc23)oc1NCc1ccccc1	1.8	-4	.	-4	-4	1.2	-18	3	-1	.
CCc1c(C)nc2cc(C)[nH]n2c1=O	1.2	-2	.	.	.	.	-1	5	18	.
Cc1ccc(S(=O)(=O)c2nc(S(C)(=O)=O)sc2N2CCCCCC2)cc1	4.7	-12	i	-15	-32	2.8	1	47	-3	5.2
COc1ccc(OC)c(NC(=O)CN(C)CC(=O)Nc2ccccc2Br)c1	1.2	-10	i	-25*	-5.6*	1.1*	19	10	-7	3.2
O=C(O)C/C=C(/NC(=O)OCc1ccccc1)C(=O)OCc1ccccc1	?	-3	i	-13	-11	7.3	12	-15	13	-2.8
COCC(=O)Nc1nc(-c2ccc(C)cc2)c(C)s1	2.9	1	.	.	.	.	-3	-6	4	.

Next entries:
SMILES	RanGTP-Imp inh	Beta apoptosis	FGF22 binding	rRNA inh HTS	rRNA inh HTS OD600	rRNA inh HTS RFP	Calb FLC	T cruzi repl	ALR H2O2 inh	AF4-AF9 inh
COc1ccc(NC(=O)Cn2cnc3c(nnn3-c3ccc(C)cc3)c2=O)cc1	7.6	-3	.	.	.	.	-25	2	-2	.
COC(C/C=C\C(=O)COCc1ccccc1)OC	7.1	-6	.	.	.	.	0	-19	.	.
O=C(CN1C(=O)c2ccccc2C1=O)Nc1ccc(S(=O)(=O)N2CCOCC2)cc1	0.3	2	i	0	-2	-1.5	-5	1	12	0.1
CC(C)(C)c1ccc(C(=O)NCCC(=O)NCc2cccs2)cc1	3.9	-1	i	0	7	-0.6	32	-8	-3	-0.6
Cc1cc(C(=O)N2CCc3c([nH]c4ccccc34)C2c2c(F)cccc2Cl)no1 (stereo not given)	27*	7	.	-19	-12	-8.6	-3	24	3	0.9
COc1ccccc1-c1noc(CCC(=O)NC2CCCC2)n1	2.2	0	i	14	10	0.9	-4	-3	29	-6.0
O=C(Cc1c(F)cccc1Cl)NCC(=O)OCc1ccccc1	-0.1	-2	i	-2	0	-3.8	8	-7	20	-0.3
CCC(C(=O)Nc1ccc2c(c1)OCCO2)c1ccccc1 (stereo not given)	5.4	-4	i	10	-7	-3.0	-16	-8	-5	-3.4
CC(=O)c1c2c3c(cccc3n(C)c1=O)C(=O)c1ccccc1-2	2.7	6	.	.	.	.	-8	-10	-18	.
O=C(COC(=O)CNC(=O)c1ccccc1)NCCNC(=O)COC(=O)CNC(=O)c1ccccc1	.	-2	i	22	16	2.3	.	.	-2	-4.5
COc1ccc(CCC2(C)NC(=O)N(C(C)C(=O)N3c4ccccc4CC3C)C2=O)cc1 (stereo not given)	.	-2	i	-18*	-12*	6.9*	.	.	-3	1.7
Cc1cccc(NC(=O)CSc2cc(C(=O)c3nccn3C)c3ccccc3n2)c1	?	2	i	5	-2	3.2	-5	2	-3	-8.5
CC(=O)NCCn1c(SCC(=O)OCc2ccccc2)nc2ccccc2c1=O	3.5	-1	.	-15	0	-3.4	19	0	-9	.
COc1ccc(-c2cc(NCc3ccccn3)n3ncnc3n2)cc1	1.4	-5	.	.	.	.	26	5	-17	.
O=S(=O)(Nc1ccncc1Cl)c1ccccc1	-0.5	-2	.	.	.	.	-11	-6	1	.
COCCNC(=O)/C(=C/c1ccccc1Cl)c1ccccc1	-0.8	-3	.	.	.	.	2	3	-3	.
CCCCC(=O)NC(=S)Nc1cc([N+](=O)[O-])ccc1OC	7.2	-6	i	5	2	-0.3	-52	1	.	-3.1
CC(C)(C)Oc1ncc(Br)c(OC(C)(C)C)n1	-4.6	.	.	.	.	.	-11	6	-8	.
COc1cc(NC(=O)CSC(=S)N2CCCC2)c(OC)cc1Cl	2.7	2	i	7	9	0.8	3	0	-2	2.7
COc1ccc2nc(N=Nc3ccc(O)c4ccccc34)sc2c1	4.1	?	i	.	.	.	-5	49	.	7.9
C[C@@H]1O[C@@H](O[C@@H]2C(=O)c3c(O)cc(O)cc3O[C@H]2c2ccc(O)c(O)c2)[C@H](O)[C@H](O)[C@H]1O	.	6	i	4	-3	-6.6	.	.	99*	-0.6
COc1ccc(-c2cc(C(F)(F)F)nc(N3CCOCC3)n2)cc1	-0.7	0	.	.	.	.	12	31	-1	.
CCN(CC(=O)Nc1ccc(NC(C)=O)cc1)C(=O)c1ccc2c(c1)OCO2	.	-3	i	0	5	-3.1	.	.	-4	?
COc1ccc(CCNCC(O)COc2cccc(C(C)=O)c2)cc1OC (stereo not given)	5.9	.	i	3	6	0.3	6	56*	.	7.0
CCC(C)N(C(=O)COc1ccccc1C#N)C1CCS(=O)(=O)C1 (stereo not given)	.	1	.	2	4	-0.8	1	-5	-3	-1.1

2 of these compounds, reformatted:
COc1ccc(-c2cc(C(F)(F)F)nc(N3CCOCC3)n2)cc1
  RanGTP-Imp inh = -0.7	Beta apoptosis = 0	FGF22 binding = .	rRNA inh HTS = .	rRNA inh HTS OD600 = .	rRNA inh HTS RFP = .	Calb FLC = 12	T cruzi repl = 31	ALR H2O2 inh = -1	AF4-AF9 inh = .
CCC(C(=O)Nc1ccc2c(c1)OCCO2)c1ccccc1 (stereo not given)
  RanGTP-Imp inh = 5.4	Beta apoptosis = -4	FGF22 binding = i	rRNA inh HTS = 10	rRNA inh HTS OD600 = -7	rRNA inh HTS RFP = -3.0	Calb FLC = -16	T cruzi repl = -8	ALR H2O2 inh = -5	AF4-AF9 inh = -3.4

More structures
SMILES	RanGTP-Imp inh	Beta apoptosis	FGF22 binding	rRNA inh HTS	rRNA inh HTS OD600	rRNA inh HTS RFP	Calb FLC	T cruzi repl	ALR H2O2 inh	AF4-AF9 inh
Cc1c(C)n(Cc2ccc(F)cc2)c2ccc(C(=O)N3CCN(c4ccccn4)CC3)cc12	-1.3	-10	i	0	-18	26	-13	12	-1	1.9
CCOc1ccc2nc(SCC(=O)N(C)C)[nH]c2c1	-2.4	4	.	.	.	.	-5	-12	-10	.
Cc1cccc(NC(=O)COc2ccccc2)c1	0.8	5	i	-8	3	2.6	3	-13	-11	?
Cc1csc2nnc(N)n12	1.1	0	.	.	.	.	2	-2	-3	.
CC(=O)N1c2ccc(S(=O)(=O)NCCC(=O)Nc3ccc(C)c(F)c3)cc2CC1C (stereo not given)	0.2	2	i	1	-3	-1.3	-3	2	0	-2.1
COc1ccc(N2CSC3=C(C#N)C(c4ccc(OC)c(OC)c4)CC(=O)N3C2)c(OC)c1 (stereo not given)	3.2	-6	i	7	4	4.9	-3	16	52	3.0
C=CCNC(=O)C1CC(c2cccc(OC)c2)=NO1 (stereo not given)	-1.1	-7	.	.	.	.	-5	-8	-1	.
COc1cc(NC(=O)CSc2c3c(nc4ccccc24)CCC3)cc(OC)c1OC	4.3	-19	i	-2	6	3.6	6	7	98*	-1.6
CSc1nc2c(c(=O)[nH]1)C(c1cccc(Br)c1)CC(=O)N2 (stereo not given)	4.6	7	i	12	8	-1.3	12	5	-23	-4.6
COc1ccccc1NC(=O)C(C)NS(=O)(=O)c1ccccc1 (stereo not given)	-0.2	-3	.	.	.	.	-3	-8	-24	.
CCc1cccc(NC(=O)Nc2cccs2)c1	-5.2	-10	.	.	.	.	31	15	35	.

Compound profiles (already shown). Order of values: RanGTP-Imp inh | Beta apoptosis | FGF22 binding | rRNA inh HTS | rRNA inh HTS OD600 | rRNA inh HTS RFP | Calb FLC | T cruzi repl | ALR H2O2 inh | AF4-AF9 inh
Profile of COC(C/C=C\C(=O)COCc1ccccc1)OC = 7.1 | -6 | . | . | . | . | 0 | -19 | . | .
Profile of COc1cc(NC(=O)CSc2c3c(nc4ccccc24)CCC3)cc(OC)c1OC = 4.3 | -19 | i | -2 | 6 | 3.6 | 6 | 7 | 98* | -1.6
Profile of O=C(c1ccco1)N1CCN(C(c2ccccc2F)c2nnnn2Cc2cccs2)CC1 (stereo not given) = -2.5 | . | . | . | . | . | -9 | -1 | 1 | .
Profile of Cc1cc(C(=O)N2CCc3c([nH]c4ccccc34)C2c2c(F)cccc2Cl)no1 (stereo not given) = 27* | 7 | . | -19 | -12 | -8.6 | -3 | 24 | 3 | 0.9

An excerpt. The share of hits here may be higher or lower than overall.
